# MLL AF4-AF9 inh: MLL-AF4/AF9 protein interaction inhibition. inhibition, % at 10 µM. AlphaScreen, biotin-AF4 peptide binding to FLAG-AF9. P42568. actives 0.47% (n = 350,000);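 active means every replicate reaching a set inhibition limit, whatever the replicate mean, cut at about 25% in these data; inconclusive means mean inhibition reaches that limit but some replicates miss it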;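 further: 0% = plate neutral control median and 100% = total signal loss; the record names both 10 and 1 µM as test concentration; the first replicate is given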
# Ecoli rRNA inh: inhibits bacterial ribosomal RNA function over humanized ribosomes. GFP signal change (wild-type ribosome), % (concentration not given with the values). AID 720706. actives 1.6% (n = 350,000). E. coli WT GFP vs humanized-ribosome RFP mutants, fluorescence, 24 h; hits give low values; DMSO median 0, no signal -100;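 active means significant combined selectivity score with lowered wild-type GFP, culture density cut under 30%, mutant RFP and density less affected; inactive means any of these conditions unmet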; further: one replicate is shown; some compounds called inactive have numbers as strong as hits
# FGF22 binding: shifts melting point of recombinant human FGF22 | Q9HCT0 | recombinant FGF22 thermal shift, SYPRO orange fluorescence; percent of sucrose octasulfate shift, DMSO zero | calls only at 9.99 µM | actives 1.5% (n = 340,000) | AID 651658;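 active means melting point raised past a set limit in the mean and every replicate; inconclusive means no clear call; three in four hits are not shown here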
# Target sequence (Q9HCT0 whole entry, looked up): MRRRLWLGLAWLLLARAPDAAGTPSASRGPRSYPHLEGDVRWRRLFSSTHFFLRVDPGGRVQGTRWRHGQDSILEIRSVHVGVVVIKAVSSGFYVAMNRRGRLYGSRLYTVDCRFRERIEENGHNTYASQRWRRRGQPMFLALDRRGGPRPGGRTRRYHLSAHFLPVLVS
# HNF4A DNA FP: change in binding of human HNF4 alpha to DNA. actives 0.3% (n = 360,000). HNF4a-FITC DNA binding, fluorescence polarization, 1 h. AID 1224865. activity change, % at 10 µM. P41235; in the data active means activity change above about 30%, passing the limit was not always enough;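 further: controls were the assay level and a saturating level of protein; the project sought stronger binding though the title names inhibitors; some compounds called inactive have numbers as strong as hits; positive values seem to mean higher polarization but the record does not say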
# Target sequence (P41235 whole entry, looked up): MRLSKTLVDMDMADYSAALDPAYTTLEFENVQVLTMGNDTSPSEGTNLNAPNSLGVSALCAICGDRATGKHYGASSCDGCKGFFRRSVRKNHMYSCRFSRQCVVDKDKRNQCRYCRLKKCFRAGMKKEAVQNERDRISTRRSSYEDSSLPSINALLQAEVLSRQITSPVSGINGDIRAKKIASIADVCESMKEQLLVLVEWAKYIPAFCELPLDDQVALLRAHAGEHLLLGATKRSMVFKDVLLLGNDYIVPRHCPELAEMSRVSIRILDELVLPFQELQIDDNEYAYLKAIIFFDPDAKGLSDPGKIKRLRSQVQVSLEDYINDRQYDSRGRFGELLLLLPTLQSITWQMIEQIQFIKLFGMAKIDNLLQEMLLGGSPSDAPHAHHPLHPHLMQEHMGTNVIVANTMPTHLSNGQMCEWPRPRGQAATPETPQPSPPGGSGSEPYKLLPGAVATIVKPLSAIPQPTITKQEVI
# ALR H2O2 inh: human ALR oxidase inhibition via reduced H2O2; P55789; purified ALR, DTT oxidation, H2O2 HRP-luminol luminescence; inhibition, % (test concentration not listed); actives 3.8% (n = 290,000); AID 485317;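 active means mean and each replicate at 75% or more; inconclusive means only one of the two met; inactive means neither met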;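 further: stock transfer was 7.5 nL into about 7.5 µL; 0% = neutral wells and 100% = wells with inactivated enzyme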
# Target sequence (P55789 whole entry, looked up): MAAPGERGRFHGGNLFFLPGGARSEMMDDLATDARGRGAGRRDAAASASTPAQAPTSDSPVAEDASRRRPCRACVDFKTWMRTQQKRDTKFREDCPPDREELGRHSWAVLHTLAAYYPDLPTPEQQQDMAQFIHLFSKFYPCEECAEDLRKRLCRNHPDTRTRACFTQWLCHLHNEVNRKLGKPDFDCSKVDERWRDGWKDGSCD
# E coli growth: E. coli growth inhibition; Escherichia coli growth, OD600, 23 h; hits give low values; OD600 absorbance (test concentration not listed); actives 0.21% (n = 330,000); AID 1053175;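 active means OD600 absorbance below the run mean of sample wells minus 3.6 SD, in any replicate, cut at about 0.56 in these data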;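 further: stock transfer was 300 nL into about 60 µL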
# Vif TR-FRET: inhibitors of Vif binding to APOBEC3G peptide, primary screen, biochemical, TR-FRET, GST-Vif 1-94, biotin-A3G peptide, dose response retest (AID 1117319); TR-FRET GST-Vif / biotin-A3G peptide binding; higher % means a stronger effect; test concentration not given here; strong numbers were not always called active; actives 0.57% (n = 260,000); inhibition, %; hits with a dose series show IC50 in µM;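 active means above the screen mean plus three standard deviations and confirmed in dose response; inconclusive means results disagree or hit not tested in dose response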;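 further: Vif residues 1-94 fused to GST binding biotinylated APOBEC3G peptide 110-148; 0% = full assay without inhibitor and 100% = GST in place of GST-Vif; retest series ran down from 100 µM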
# Ecoli rRNA inh OD600: further read-out of Ecoli rRNA inh, marked with its call; OD600 change, %; measured here: OD600 growth;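 optical density of the mix in the first replicate; 0 = DMSO median and -100 = no signal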
# Ecoli rRNA inh RFP: further read-out of Ecoli rRNA inh, marked with its call; RFP signal change, %; measured here: RFP humanized mutant strains;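 first replicate; 0 = DMSO median and -100 = no signal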
# The depositor's hits bear a star; i = inactive; ? = inconclusive; nt = no result given; & = joins results of further samples. A portion of the library, so the mix of outcomes need not match the whole.
SMILES,MLL AF4-AF9 inh,Ecoli rRNA inh,Ecoli rRNA inh OD600,Ecoli rRNA inh RFP,FGF22 binding,HNF4A DNA FP,ALR H2O2 inh,E coli growth,Vif TR-FRET
COc1ccc2oc(=O)c(C(=O)Nc3cccc(C)c3)cc2c1,0.6,13.8,13.4,3.4,i,0.5,0.4,0.775,-0.1%
C[C@H]1CN([C@@H](C)CO)C(=O)c2cc(NC(=O)C3CC3)ccc2O[C@H]1CN(C)C(=O)Nc1cccc2ccccc12,-1.3,0.6,-0.6,2.2,i,nt,nt,nt,nt
O=C(N[C@H]1CC[C@@H](CCn2cc(Cc3ccccc3)nn2)O[C@@H]1CO)c1ccccn1,-1.3,0.4,5.0,-2.2,i,nt,nt,nt,nt
Cc1ccc(C(=O)NCC(=O)Nc2ccc(C)c(S(=O)(=O)Nc3ccc(Cl)cc3)c2)s1,-1.1,9.2,3.6,1.3,i,-2.9,-4.7,0.667,-7.9%
CC(C)CN1C(=O)C(=O)N(CC(=O)NCc2ccc3c(c2)OCO3)C1=O,nt,nt,nt,nt,nt,-2.6,-2.8,0.683,-3.7%
COc1ccc(C(=O)Nc2nc(C)cs2)cc1S(=O)(=O)N1CCCC1,-1.7,-6.8,-4.1,0.8,i,0.6,-8.8,0.711,24.1%
COc1ccc(-c2noc(CNS(=O)(=O)c3ccc(NC(C)=O)cc3)n2)cc1OC,1.1,3.0,12.2,-0.1,i,7.5,-1.8,0.668,nt
COc1ccc(NC(=O)Nc2ccc3c(c2)C(=O)N([C@H](C)CO)C[C@@H](C)[C@@H](CN(C)Cc2ccncc2)O3)cc1,-11.1,-1.1,-1.4,-1.9,i,nt,nt,nt,nt
CCCCCC(=O)Nc1c2c(nc3ccccc13)CCC2,0.2,-7.9,-5.1,1.6,i,-1.1,-5.7,0.69,-7.9%
NC(=O)CSc1ccc(S(=O)(=O)N2CCOCC2)cn1,-3.2,1.3,5.8,-2.5,i,-7.2,nt,0.684,nt
Cc1[nH]c2ccccc2c1C(=O)C(=O)N1CCN(c2ccccc2)CC1,2.9,-7.2,-8.2,2.9,i,3.8,21.3,0.69,4.1%
CC(=O)Oc1ccc(C(=O)Nc2ccccc2C(=O)N2CCCC2)cc1,-8.7,3.5,6.3,1.8,i,0.9,7.3,0.692,4.6%
O=C(Cc1cccs1)N/N=C/C=C\c1ccccc1[N+](=O)[O-],-0.5,17.4,22.2,3.4,i,0.1,-4.0,nt,20.0%
O=C(NC(=S)Nc1ccc(S(=O)(=O)Nc2nccs2)cc1)c1ccc(F)cc1,-5.9,-17.1,-18.6,-16.8,i,-3.1,29.3,nt,28.0%
O=C(Nc1ccc2c(c1)[C@H]1C[C@H](CC(=O)N3CCCCC3)O[C@H](CO)[C@H]1O2)C1CCC1,-1.3,0.5,-0.2,-1.0,i,nt,nt,nt,nt
C[C@@H]1CN([C@H](C)CO)C(=O)CCCn2cc(nn2)CO[C@H]1CN(C)CC1CCCC1,-1.3,3.1,3.3,-1.5,i,nt,nt,nt,nt
COc1cc(/C=C/C(=O)OCC(=O)NC2CC2)cc(OC)c1OC,3.1,1.9,-4.5,-1.1,i,-1.9,-0.5,0.674,nt
COc1ccccc1N1CCN(C(=O)CSc2ncccc2-c2nc3ccccc3[nH]2)CC1,nt,nt,nt,nt,nt,25.0,nt,0.71,-0.3%&-6.8%
CC(C)(C)OC(=O)NCCCCCc1nnc(SCc2cccc(F)c2)o1,-1.6,-30.2,-38.2,-1.7,i,-0.3,-3.6,0.673,-0.6%
COc1ccc(C(=O)NCC(=O)N2CCC(C)CC2)cc1OC,nt,nt,nt,nt,nt,0.7,-7.3,0.701,2.0%
CCS(=O)(=O)Nc1ccc2c(c1)C(=O)N(C)C[C@@H](OC)[C@H](C)CN(C(=O)CN(C)C)[C@H](C)CO2,-2.9,0.7,2.1,-2.5,i,nt,nt,nt,nt
COC(=O)Cc1c(C(=O)OC)nnn1-c1ccc(OC(F)(F)F)cc1,-6.4,8.2,4.4,0.3,i,-3.3,-3.7,0.688,nt
Nc1nc(-c2ccc(-c3ccccc3)cc2)cs1,2.0,-25.3*,-13.9*,0.3*,nt,1.0,99.3*,0.662,6.7%
CN(Cc1nc2ccccc2c(=O)[nH]1)c1ccccc1,nt,nt,nt,nt,nt,0.0,11.5,0.623,nt

# Overlap with the part before: three compounds, followed by the next part.
SMILES,MLL AF4-AF9 inh,Ecoli rRNA inh,Ecoli rRNA inh OD600,Ecoli rRNA inh RFP,FGF22 binding,HNF4A DNA FP,ALR H2O2 inh,E coli growth,Vif TR-FRET
COC(=O)Cc1c(C(=O)OC)nnn1-c1ccc(OC(F)(F)F)cc1,-6.4,8.2,4.4,0.3,i,-3.3,-3.7,0.688,nt
Nc1nc(-c2ccc(-c3ccccc3)cc2)cs1,2.0,-25.3*,-13.9*,0.3*,nt,1.0,99.3*,0.662,6.7%
CN(Cc1nc2ccccc2c(=O)[nH]1)c1ccccc1,nt,nt,nt,nt,nt,0.0,11.5,0.623,nt
CN(C)CCNC(=O)c1cccc(NS(=O)(=O)c2ccc(Cl)c(Cl)c2)c1,3.0,-13.4,-5.5,-0.8,i,-0.5,-0.2,0.664,6.3%
Cc1nc2nc(C)c(NS(=O)(=O)c3cccs3)c(=O)n2[nH]1,-0.3,9.5,15.6,2.0,i,0.9,29.5,0.709,nt
COc1ccc(-c2cc(C(=O)N(C)CC(=O)Nc3ccccc3Cl)c3ccccc3n2)cc1OC,-2.0,-19.8,-28.6,2.7,i,-2.9,-3.4,0.692,2.4%
c1ccc(CNc2ccc(CNc3ncn[nH]3)cc2)cc1,nt,nt,nt,nt,nt,0.3,?,0.666,-5.3%
O=C(O)c1ccc2c(c1)C(=O)N(N1C(=O)c3ccccc3C1=O)C2=O,nt,nt,nt,nt,nt,-1.3,-4.9,0.651,nt
CC(=O)N(C)C[C@@H]1Oc2cc(C3=CCCC3)ccc2S(=O)(=O)N([C@@H](C)CO)C[C@H]1C,-2.5,-0.5,-8.3,-3.4,i,nt,nt,nt,nt
CCn1cc(C(=O)NCc2ccco2)c2cc(OC)c(OC)cc2c1=O,nt,nt,nt,nt,nt,-0.9,nt,0.726,66.4%
Cc1ccc(C(=O)C(OC(=O)CNS(=O)(=O)c2ccccc2)c2ccccc2)cc1 (centres undefined),nt,nt,nt,nt,nt,-3.0,30.0,0.655,0.5%
Cc1ccc(S(=O)(=O)N(C)C[C@@H]2Oc3ccc(NC(=O)Cc4cn(C)c5ccccc45)cc3C(=O)N([C@H](C)CO)C[C@@H]2C)cc1,2.2,-0.7,2.2,-1.5,i,nt,nt,nt,nt
CC(NC(=O)CCC(=O)c1ccccc1)c1ccc(F)cc1 (centres undefined),6.8,1.0,0.4,-0.4,i,7.0,0.7,0.681,-3.5%
O=C(Nc1cc2c3c(c1)CC(=O)N3CCC2)c1c(F)cccc1F,-8.8,2.1,7.9,-2.9,i,1.8,-0.4,0.671,-3.1%
COc1cccc(CNC(=O)c2cc3oc4ccccc4c3n2C)c1OC,nt,nt,nt,nt,nt,0.7,-3.9,0.746,-3.2%&-0.4%
COc1cc(C(O)P(=O)(OCCC(C)C)c2ccc(N(C)C)cc2)cc(OC)c1OC (centres undefined),0.1,7.0,1.6,1.9,i,2.8,-1.9,0.674,11.6%
CCCS(=O)(=O)N1CCCC(C(=O)NCCCN(C)Cc2ccccc2)C1 (centres undefined),nt,nt,nt,nt,nt,-1.6,1.0,0.691,-7.6%
O=S(=O)(Cc1ccccc1)N1CCCCN2[C@@H](CO)[C@@H](c3ccc(-c4ccc(F)cc4)cc3)[C@@H]2C1,0.3,-55.2,-58.9,-13.0,i,nt,nt,nt,nt
COCCNc1nc(Nc2ccc(C#N)cc2)c2sccc2n1,1.2,-13.4,-3.7,-4.9,i,-1.5,nt,nt,nt
CC(C)CC#Cc1ccc2c(c1)O[C@@H](CN(C)C(=O)C1CCCCC1)[C@H](C)CN([C@@H](C)CO)S2(=O)=O,1.7,-2.0,-2.3,2.3,i,nt,nt,nt,nt
CN(C)Cc1cn(CC[C@@H]2CC[C@@H](NC(=O)Nc3ccccc3F)[C@H](CO)O2)nn1,-0.8,3.9,5.8,0.7,i,nt,nt,nt,nt
Cn1c(N)c(N=O)c(=O)n(C)c1=O,1.2,0.9,0.0,-2.1,i,-0.1,nt,0.653,4.6%
O=c1cc(N2CCCCC2)[nH]c(=O)n1C1CCCCC1,-9.1,8.2,17.2,-3.8,i,3.7,nt,0.704,-7.0%
CC(=O)Nc1ccc(NC(=O)C2CC(=O)Nc3ncnn32)cc1 (centres undefined),-0.9,9.1,0.6,-3.6,i,3.3,2.5,0.716,?
CN1C(=O)c2cc(NC(=O)c3ccccc3F)ccc2OC[C@H]2O[C@@H](CC(=O)NCc3ccc4c(c3)OCO4)CC[C@H]21,0.1,-4.2,1.6,0.4,i,nt,nt,nt,nt
CC1(C(=O)NCc2ccc(Cl)cc2)CCN1C(=O)Cc1cccs1 (centres undefined),0.5,1.1,7.9,1.1,i,-1.9,nt,nt,nt
O=C(CC1CC1)N1CC2(C1)[C@@H](c1ccccc1)[C@@H](CO)N2C(=O)c1cnccn1,-11.4,2.7,3.3,-2.1,i,nt,nt,nt,nt
COc1ccc(C(CNC(=O)c2ccc(S(=O)(=O)Nc3cccc(C)c3C)cc2)N2CCOCC2)cc1 (centres undefined),8.8,-7.0,-35.1,1.6,i,0.0,nt,0.671,nt
Cc1nc(NCCc2ccc(F)cc2)c(C#N)c(C)c1[N+](=O)[O-],3.9,nt,nt,nt,i,0.4,-3.7,0.675,15.1%
O=C(NCCCO)C(=O)NCc1ccccn1,-1.1,14.2,14.6,-2.2,i,1.3,-20.8,0.708,-0.3%
CO[C@H]1CN(C)C(=O)c2ccc(NS(=O)(=O)c3ccc(Oc4ccccc4)cc3)cc2OC[C@@H](C)NC[C@@H]1C,3.0,1.6,-3.6,9.1,i,nt,nt,nt,nt
CCCNC(=O)N(C)C[C@H]1Oc2ncc(C#Cc3ccccc3F)cc2C(=O)N([C@H](C)CO)C[C@@H]1C,4.5,2.2,0.7,2.2,i,nt,nt,nt,nt
COc1ccc(CCC(=O)Nc2ccc3c(c2)OCO3)cc1,-3.4,4.3,8.6,2.8,i,0.3,nt,0.62,nt
COc1ccc(C(=O)N2CCC2(C)C(=O)NC(C)C)c(OC)c1 (centres undefined),-0.8,5.8,15.2,-2.4,i,0.4,nt,nt,nt
O=C1NC(=O)C(Cc2ccc(Cl)cc2)(c2ccccc2)N1 (centres undefined),-0.2,-11.4,-28.1,-3.7,i,-2.2,nt,0.714,1.1%
O=C1[C@H](c2ccccc2)[C@@H](c2ccccc2)N1c1ccncc1,2.7,-49.2,-73.2,-13.8,i,0.1,nt,0.7,0.2%
O=S(=O)(Nc1ccc2c(c1)OCCO2)c1cccc2cccnc12,nt,nt,nt,nt,nt,0.1,-1.2,0.651,4.4%
Cc1ccccc1C(=O)NNC(=O)Cc1cccc2ccccc12,-44.1,-40.8*,3.1*,17.1*,i,1.7,-0.1,0.633,10.1%
CCN(CC)CCCNC(=S)N(Cc1cccs1)Cc1cc2cc3c(cc2[nH]c1=O)OCCO3,-2.6,-6.1,2.4,0.2,i,6.1,-9.1,0.632,-1.2%
Cc1c(C(=O)NCc2ccc(C(F)(F)F)cc2)sc(=O)n1Cc1ccc(S(=O)(=O)N(C)C)cc1,1.3,0.3,4.2,-2.1,i,1.9,nt,nt,nt
